ClpP mod = qHTS Assay for Activators of ClpP; Potency, µM (series often up to 57.5 µM), for the others: top-dose activity change, negative = active; purified B. subtilis ClpP, FRET peptide cleavage, 20 min; ATP-dependent Clp protease proteolytic subunit (Bacillus subtilis (strain 168)), P80244; 340,000 compounds, 1.9% hits; active = well fitted falling curve with a large enough effect; inconclusive = small, poorly fitted or top-dose-only effect; inactive = no such curve, though single readings can be large or run the other way; further: potency means the concentration at half of the fitted maximal effect; the source files actives as falling curves though it sought activators and does not explain the sign; nearly all actives have a fitted effect of over 65% in size; many hits overshoot -100%
Target sequence (P80244 whole entry, looked up): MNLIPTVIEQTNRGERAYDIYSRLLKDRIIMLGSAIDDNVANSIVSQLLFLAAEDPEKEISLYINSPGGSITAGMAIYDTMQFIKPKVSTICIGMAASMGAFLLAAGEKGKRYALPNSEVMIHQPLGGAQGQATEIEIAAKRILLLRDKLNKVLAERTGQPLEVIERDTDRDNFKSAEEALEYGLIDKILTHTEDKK
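Purified B. subtilis ClpP, 10 microg/mL final in Tris/HCl pH8 with KCl, BSA, glycerol and Tween-20, cleaved an Abz/nitrotyrosine-quenched decapeptide. Fluorescence (ex 320, em 430) was read at 0 and 20 min at room temperature. Delta was normalized to 5.8 microM ADEP and DMSO/no-enzyme controls.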
CtBP-E1A blk = CtBP/E1A binding inhibition; activity change, % (concentration not given with the values); AlphaScreen GST-E1A/His-CtBP binding, 1536-well; active compounds read low; control for the full effect not named in the record; 340,000 compounds, 0.49% hits; in the data active means activity change below about -65%; inconclusive means about -30% to -65%; inactive means above about -30%; further: on the % scale 0 is the no-effect control and ±100 the full control effect
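Protein mix (5X: 125 nM each GST-E1A, His-CtBP) was incubated with pinned compound 2 h at 37 deg C in dark, in 50 mM Tris pH 8.0 buffer with 300 mM NaCl. Glutathione donor and nickel acceptor beads followed; AlphaScreen signal read after 1 h.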
Active calls of the source: *; ? = inconclusive. Some of the compounds tested. The share of hits here may be higher or lower than overall.

SMILES | ClpP mod | CtBP-E1A blk
O=C(Nc1nnc([C@@H]2O[C@H](CO)[C@@H](O)[C@H]2O)s1)Nc1cccc2c1CCCC2 | 2.0% | -0.6
CCOC(=O)c1cc(OC)c2cccc(CN3CCC(C)(C(=O)NCCOC)C3)c2c1 (stereo unspecified) | 4.0% | 2.2
Cc1ccc(S(=O)(=O)N2C(c3ccc(Cl)c(Cl)c3)CC=C(C(=O)O)C2c2ccc(Cl)cc2)cc1 (stereo unspecified) | 0.6% | -6.3
COc1cc(-c2cc(NC=O)c3ncc(-c4ccc(C(C)=O)cc4)n3c2)ccc1O | -9.3% | -24.7
CN1OC[C@@H]2CN(C(=O)NC3CCCCC3)[C@H](c3ccc(N4CCCCC4)cc3)C[C@@H]21 | 0.3% | 1.5
COc1ncc(-c2ccc(N3C(c4ccsc4)=Cc4ccc(F)cc4C3CC(=O)c3ccco3)cc2)cn1 (stereo unspecified) | -4.6% | 2.4
COc1ccc(CC(N)c2csc(NC(=O)Nc3ccccc3C(C)(C)C)n2)cc1 (stereo unspecified) | -2.0% | -8.9
CC(=O)c1cccc(-c2ccnc3c2CC(C(=O)N2CCN(C)CC2)O3)c1 (stereo unspecified) | -1.8% | -27.2
OCC[C@@H]1C[C@H](O)[C@@H](O)[C@@]2(OCc3ccc(CO)cc32)O1 | -0.5% | -3.1
CCCS(=O)(=O)NC(=O)C1(C)CCCN(C(=O)COc2ccccc2)C1 (stereo unspecified) | 1.1% | 9.3
Cc1ccc(CN2C(=O)C(F)(F)Oc3ccc(C)cc32)cc1 | 0.8% | 28.8
COc1cc(C(O)c2nc(-c3cc(F)cc(F)c3)cs2)ccc1F (stereo unspecified) | 0.3% | 2.7
COCCCNC(=O)C[C@@H]1C[C@@]2(C(=O)OC)CCCCC=C2N(Cc2ccco2)C1=O | -0.7% | 6.4
CN(C)c1cccc(NC(=O)c2cccc3c(-c4ccc(F)c(F)c4)coc23)c1 | 22.4µM* | -26.5
CC(=O)NC(c1ccccc1)c1nc(-c2ccc(S(C)(=O)=O)cc2)cs1 (stereo unspecified) | -5.5% | 4.8
Cc1ccc(S(=O)(=O)N2CCC(=O)N([C@H](COCc3ccc(Cl)cc3)C(C)C)CC2)cc1 | -1.0% | 4.3
CCOC(=O)c1c(-c2ccc(N(C)C)cc2)oc2c1C(OC)CC2 (stereo unspecified) | 5.0% | 11.9
COc1ccccc1OCCn1nc2ccccc2c1OC | -7.2% | -2.0
COCCNc1nc(NCc2ccccc2F)c2sccc2n1 | -24.0% | -2.0
CCc1nc2c(OCc3ccc(Cl)cc3)cccn2c1N(C=O)Cc1ccc(OC)cc1 | -6.4% | ?
COCCNC(=O)C1(C)CCCN(CCSc2ccccc2)C1 (stereo unspecified) | 1.5% | 1.0
Cc1nc(C(F)(F)F)ccc1C(=O)N1CCCC(C)(C(=O)O)C1 (stereo unspecified) | -9.0% | 4.4
O=C(NCc1c(Cl)cccc1Cl)c1[nH]c(C(F)(F)F)nc1-c1ccccc1 | -1.2% | 0.0
Cc1cc2oc(=O)cc(CN3CCCC3)c2cc1Cl | -4.7% | -5.7
COc1cccc(C(C)(O)c2nc(-c3ccc(Cl)cc3)cs2)c1 (stereo unspecified) | -0.5% | 2.4
(further entries)
SMILES | ClpP mod | CtBP-E1A blk
CC(=O)OCC(C)n1[nH]c2ccccc2c1=O (stereo unspecified) | 4.8% | -15.1
Nc1ccn([C@@H]2O[C@H](C(=O)Nc3cc(C(F)(F)F)cc(C(F)(F)F)c3)[C@@H](O)[C@H]2O)c(=O)n1 | 0.4% | 1.6
CCc1nc2ccc(C(=O)Nc3cc(-c4ccccc4)ccc3OC)cn2c1N(CC)CCN(C)C | -1.4% | -5.0
CC(C)(C)NC(=O)C(c1cc2ccccc2o1)n1c(-c2ccc(-c3ccccc3)cc2)nc2ccccc21 (stereo unspecified) | 4.3% | 0.3
CCC(c1nnnn1-c1ccc2c(c1)OCCO2)N1CCN(c2ccc(C)cc2)CC1 (stereo unspecified) | -3.0% | ?
CC(=O)C1=CCC(c2cccc3ccccc23)N(S(=O)(=O)c2ccc(C)cc2)C1 (stereo unspecified) | -2.2% | -8.6
COC(=O)c1c(N)[nH]c(C(=O)c2ccccc2)c1-c1ccc(Cl)cc1 | 0.3% | -2.4
CC(C)C[C@H]1CN([C@@H](Cc2ccccc2)CN2CCC[C@@H]2CN2C(=O)C(=O)NC[C@@H]2Cc2ccc(O)cc2)C(=O)C(=O)N1CC1CCCCC1 | -3.7% | -25.5
O=S1(=O)CC(N2CC=CC2)CN1Cc1cn(Cc2cccc(C(F)(F)F)c2)nn1 (stereo unspecified) | -3.4% | -22.7
CCOC(=O)C1CCCN(C(=O)c2ccc(OC)c(OC)c2)CC1 (stereo unspecified) | 2.3% | 8.5
CCCCNC(=O)C1(C)CCN1C(=O)c1cc(OC)ccc1Br (stereo unspecified) | 2.3% | 6.8
COc1cccc(C2=Cc3ccc(F)cc3C(CC(C)=O)N2c2ccc(-c3cc(OC)c(OC)c(OC)c3)cc2)c1 (stereo unspecified) | -12.4% | -20.0
COc1cccc(NC(=O)C2(C)CCN2C(=O)Cc2ccc(C(C)C)cc2)c1 (stereo unspecified) | -0.4% | 9.8
CCOC(=O)C1(C)CCCN(C(=O)c2ccc(OC(F)F)cc2)C1 (stereo unspecified) | -0.3% | 7.6
Cc1ccc(C(O)c2ncc(-c3ccc(C(F)(F)F)cc3)[nH]2)cc1F (stereo unspecified) | -3.1% | -7.3
c1ccc(CNc2nc(NCC3CC3)nc3cc(-c4ccccc4)sc23)cc1 | ? | 1.4
OC(c1ccc(F)cc1)c1nc(-c2ccncc2)cs1 (stereo unspecified) | 1.0% | 0.9
Cc1ccc(C)c(NCCCCCCCC(=O)O)c1 | 1.3% | 7.2
CC(C)C[C@H]1CN([C@@H](Cc2ccc(O)cc2)CN2CCC[C@H]2CN2C(=O)C(=O)NC[C@@H]2Cc2ccccc2)C(=O)C(=O)N1CCc1ccccc1 | -1.1% | 6.9
CCn1nccc1NC(=O)c1csc([C@H]2C[C@H](O)[C@@H](CO)O2)n1 | -1.8% | 2.8
O=C(NCc1ccccc1Cl)[C@H]1CCCN1C(=O)[C@H]1CCCN1C(=O)c1ccc(Cl)cc1 | -0.8% | 2.9
O=S1(=O)CC(N2CCN(CCO)CC2)CN1Cc1cn(Cc2ccc(F)cc2)nn1 (stereo unspecified) | 1.5% | 1.5
Cc1ccc(C)c(CC(=O)N2CCCCC2c2cc(C(=O)Nc3ccc(F)c(Cl)c3)no2)c1 (stereo unspecified) | -4.5% | -0.1
CC1(C(=O)NS(=O)(=O)c2cccc(OC(F)F)c2)CCN1C(=O)CCc1cccs1 (stereo unspecified) | 1.9% | 6.0
COc1cc(CCN(C(=O)c2cc3ccccc3[nH]2)C(C)c2nc3ccccc3[nH]2)cc(OC)c1 (stereo unspecified) | -6.0% | -6.5
Remaining list, next part.
SMILES | ClpP mod | CtBP-E1A blk
OC(c1ccc(F)cc1)c1nc(-c2ccoc2)cs1 (stereo unspecified) | -0.2% | -3.2
Cc1noc(C)c1-c1ccc(C(=O)NCc2ccncc2)c2occc12 | 4.3% | -17.7
COc1cccc(-c2cnc(C(O)c3cccc(CN4CCCCC4)c3)[nH]2)c1 (stereo unspecified) | 1.8% | -0.4
Cc1oc(-c2ccc(Cl)cc2)cc1C(=O)N1CCC1(C)C(=O)O (stereo unspecified) | -17.5% | 1.6
COCCNC(=O)C1(C)CCN(C(=O)c2cc(C(C)(C)C)nn2C)C1 (stereo unspecified) | -2.8% | 9.4
CN(C)CCCNC(=O)c1ccc(-c2cc3nc(NCc4cccnc4)n(C)c(=O)c3s2)cc1 | -9.0% | 0.4
Cc1cccc(S(=O)(=O)NC(=O)C2(C)CCN2C(=O)c2ccc(C3CCCCC3)cc2)c1 (stereo unspecified) | 2.4% | 6.6
CCOC(=O)[C@]12CCC=C1N(Cc1ccc3c(c1)OCO3)C(=O)[C@H](CC(=O)N1CCSCC1)C2 | 3.0% | 1.8
C(=NNC1=NCCN1)c1ccnc2ccccc12 | 1.5% | 9.4
OC[C@@H]1CN(Cc2ccc(-c3ccccc3)cc2)C[C@H](n2cnc3c(NC4CCC4)ncnc32)O1 | -5.5% | -9.7
O=C(CC1c2ccccc2C=C(c2ccsc2)N1c1ccc(-c2cccnc2)cc1)C1CC1 (stereo unspecified) | 4.3% | 18.9
O=C(Nc1ccc2c(c1)OCO2)c1cc(C2CCCCN2C(=O)c2ccc(Cl)cc2)on1 (stereo unspecified) | -4.8% | -17.8
CC(C)C[C@@H](CN1CCC[C@@H]1CN1C(=S)NC[C@@H]1Cc1ccccc1)N1C[C@H](Cc2ccc(O)cc2)N(CC2CCCCCC2)C1=S | -1.8% | -4.8
Cc1ccccc1-c1ccc(CN2C(C)C(=O)N(Cc3cn(Cc4ccco4)nn3)CCS2(=O)=O)cc1 (stereo unspecified) | -1.8% | -18.4
CCCCN(C)C(=O)c1sc(=O)n(CC(=O)c2ccccc2OC)c1C | -0.7% | 1.7
CCCCCCCCN1C(=O)[C@H](CC(=O)N2CCCCC2)C[C@@]2(C(=O)OC)CCCCC=C12 | 2.1% | 2.7
CC1(C(=O)Nc2ccc3c(c2)OCCO3)CCN1C(=O)Cc1cc(F)ccc1F (stereo unspecified) | 2.0% | 0.0
CC(C)c1ccc(Nc2ncc3c(n2)CCN(C(=O)Nc2ccc(F)c(Cl)c2)C3)cc1 | ? | 0.0
O=C(NCc1cccnc1)c1cc(C2CCCCN2S(=O)(=O)c2ccccc2)on1 (stereo unspecified) | -1.2% | 6.8
COc1ccc(CCN2C(=O)CCC2(C)c2nnnn2-c2c(C)cccc2C)cc1OC (stereo unspecified) | 0.6% | 2.9
COc1ccccc1-c1ccc2c(c1)C(C)(Cc1cccc(C#N)c1)C(=O)N2 (stereo unspecified) | -2.4% | -1.4
O=C(CC[C@H]1O[C@@H](n2cnc3c(NC(=O)c4ccccc4)ncnc32)[C@H](O)[C@@H]1O)NCc1ccccn1 | 1.3% | -3.0
Cc1ccccc1Cn1c(C)c(C(=O)N(C)Cc2ccc(F)cc2)sc1=O | -0.5% | 3.5
Cn1nc(C2CC2)cc1NC(=O)C1(C)CCN1C(=O)c1ccccc1CCc1ccccc1 (stereo unspecified) | 1.1% | -9.5
OC(c1ccc(Cl)c(F)c1)c1ncc(-c2ccccc2C(F)(F)F)[nH]1 (stereo unspecified) | 1.1% | -0.7
(listing goes on)
SMILES | ClpP mod | CtBP-E1A blk
COc1ccc(Cl)cc1Cn1c(C)c(C(=O)NCc2ccc3c(c2)OCCO3)sc1=O | 0.5% | -19.1
CCOC1=C2CN(S(=O)(=O)c3ccc(C)cc3)[C@H](c3cccc4ccccc34)C[C@H]2C(C#N)(C#N)C(C#N)(C#N)C1 | -4.5% | 8.3
CC(C)(C)c1ccc(C(=O)N2CCC2(C)C(=O)Nc2cccc3ccccc23)cc1 (stereo unspecified) | -2.6% | 0.5
OC[C@@H]1CN(Cc2ccc(Cl)cc2)C[C@H](n2cnc3c(NCc4ccco4)ncnc32)O1 | 1.1% | -8.3
CCCC(=O)Nc1nnc([C@H]2C[C@H](O)[C@@H](CO)O2)s1 | -2.5% | 0.0
CCCC(=O)N1CCCC1(C)C(=O)Nc1cc(OC)ccc1OC (stereo unspecified) | -0.4% | 7.0
COCc1cccc(-c2csc(C(C)(O)c3ccc(OC)cc3)n2)c1 (stereo unspecified) | -0.2% | 0.2
O=C(C(=O)N1CCN(CCN2CCOCC2)CC1)c1ccccc1 | -1.0% | 0.0
CN(Cc1ccc(C(F)(F)F)cc1)C(=O)[C@H]1O[C@@H](n2ccc(=O)[nH]c2=O)[C@H](O)[C@@H]1O | -2.8% | 7.8
CC1(C(=O)NS(=O)(=O)c2ccc3c(c2)CCO3)CCN1C(=O)Cc1ccc(-c2ccccc2)cc1 (stereo unspecified) | -2.4% | -16.6
CCCNC(=O)C1(C)CCCN(Cc2cccn2C)C1 (stereo unspecified) | -1.6% | 9.3
CCCCCn1nnnc1C1c2ccccc2C(=O)N1Cc1ccco1 (stereo unspecified) | -1.4% | 0.4
O=C(Nc1nnc([C@H]2C[C@H](O)[C@@H](CO)O2)s1)NC(c1ccccc1)c1ccccc1 | -0.1% | -4.2
O=c1cccc(-c2ccc3ccccc3c2)o1 | -2.0% | -3.6
O=C(NCC1CCCCC1)c1ccc2nc([C@H]3C[C@H](O)[C@@H](CO)O3)[nH]c2c1 | 2.3% | -0.8
